VDR inh: Inhibitors of the vitamin D receptor (VDR): qHTS; Vitamin D3 receptor (Homo sapiens), P11473; Potency, µM, for inactives: max response, negative = inhibition, usual class: inhibitors; AID 504847, 2011; VDR-SRC2-3 peptide fluorescence polarization, 2 h; hit rate 0.93% among 400,000; active = well fitted inhibition curve with a large enough effect; inconclusive = small, poorly fitted or top-dose-only effect, or another doubt; inactive = no such curve, though single readings can be large or run the other way; note: series mostly up to about 120 µM
Target sequence (P11473 whole entry, looked up): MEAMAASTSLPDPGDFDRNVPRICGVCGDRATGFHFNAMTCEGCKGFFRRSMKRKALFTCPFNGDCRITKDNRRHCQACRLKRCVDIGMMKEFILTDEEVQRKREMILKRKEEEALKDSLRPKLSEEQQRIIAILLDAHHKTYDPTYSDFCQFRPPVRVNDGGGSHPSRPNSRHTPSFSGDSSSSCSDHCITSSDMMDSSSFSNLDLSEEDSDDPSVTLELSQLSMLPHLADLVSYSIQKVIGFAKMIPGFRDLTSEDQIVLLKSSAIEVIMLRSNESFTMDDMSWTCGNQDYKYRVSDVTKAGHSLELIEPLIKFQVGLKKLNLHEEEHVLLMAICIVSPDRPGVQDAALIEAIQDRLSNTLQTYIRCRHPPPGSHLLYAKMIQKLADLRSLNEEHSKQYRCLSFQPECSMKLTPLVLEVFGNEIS
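After 23 nl compound addition and a short centrifugation, plates sat for 2 hours at ambient temperature; polarization of fluorescence then indicated loss of VDR binding to peptide SRC2-3.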
* = called active by the depositor; ? = inconclusive; & = joins results of further samples. % is set by controls: 0 for no effect and ±100 for the full control effect; potency is the fitted concentration of half-maximal effect. A portion of the library; the hit share may differ from the screen's.

entry	canonical_smiles	VDR inh
1	COC(=O)c1ccc2c(c1C(=O)OC)CN(S(=O)(=O)C(C)(C)C)[C@@H]2CCO	-4%
2	O=C(NCc1cccc(F)c1)C1CCC(=O)N(CCCN2CCOCC2)C1 (stereo not drawn)	-1%
3	Cc1nc(SCCC(=O)O)c2cc(-c3ccccc3)sc2n1	4%
4	CN1CCN(CCOCCOc2ccc(Br)cc2Cl)CC1	18%
5	CC(Nn1cnnc1)c1cc(Cl)ccc1O (stereo not drawn)	4%
6	O=C(N/N=C\c1cccc(Cl)c1)c1ccc(Cn2cccn2)o1	-6%
7	COc1ccc2[nH]c(C)c(CCNC(=S)Nc3ccc(F)cc3)c2c1	-15%
8	Cc1ccc(-n2c(SCC(=O)Nc3ccc(Cl)cc3)nc(O)cc2=O)cc1	-14%
9	O=c1c2ccccc2nc2c3ccccc3c(NCc3cccnc3)nn12	10%
10	COc1ccc(CN(Cc2ccccc2)C(=O)COC(C)=O)cc1COc1ccc(NC(C)=O)cc1	-1%
11	Cc1nc2ccccc2cc1C(=O)N/N=C/c1ccco1	-2%
12	O=C(Nc1ccc(Cl)cc1)c1ccc(-n2cncn2)c([N+](=O)[O-])c1	-22%
13	O=C1C[C@@H]2CCN3C(=O)CCC[C@@H]([C@H]23)[C@H]1Cc1ccccc1	-10%&-8%
14	CC(=O)O/N=C/c1c(NCc2ccccc2)nc2c(C)cccn2c1=O	-6%
15	Cc1cc(C)c(S(=O)(=O)N2CCOCC2)cc1C	?
16	Cn1c(N)c(C(=O)COC(=O)c2ccccc2NCc2ccco2)c(=O)n(C)c1=O	-16%
17	CC(C)C(C(=O)Nc1ccc2c(c1)OCCO2)N1C(=O)c2ccccc2C1=O (stereo not drawn)	-26%
18	CSC(N)=NCCC[C@H](N)C(=O)O	1%
19	Cc1cccc(C(O)(C(=O)NNc2ccc3ccccc3n2)c2cccc(C)c2)c1	-6%
20	CCOc1cc2[nH]c(=O)n(CCCN3CCCC3=O)c(=O)c2cc1OCC	5%
21	COc1cc2[nH]c(=S)nc(NC3CCCCCC3)c2cc1OC	?
22	COc1cc(-c2cc(N)n(S(=O)(=O)c3ccccc3)n2)cc(OC)c1OC	-1%
23	Cc1cc(NC(=O)c2ccc(S(=O)(=O)N3CCOCC3)cc2)no1	2%
24	CC(Oc1cccc2ccccc12)C(=O)N/N=C/c1cccnc1 (stereo not drawn)	-93%
25	CCc1nn2c(=O)cc(COC(=O)C(CC)c3ccccc3)nc2s1 (stereo not drawn)	1%
26	COc1cccc(OCC(O)CN2CCC(CN3C(=O)c4cccc5cccc(c45)C3=O)CC2)c1 (stereo not drawn)	12%
27	O=C(c1ccc(F)cc1F)N1CCC(c2noc(-c3ccc(S(=O)(=O)N4CCCC4)cc3)n2)CC1	17%
28	CCC(=O)N=c1n(C)c2ccccc2n1CCOc1ccccc1	-8%
29	CCN(CC)Cc1c(C(=O)N/N=C/c2ccc(C)o2)nnn1-c1nonc1N	15%
30	O=C(CN1CCN(Cc2ccc(F)cc2)C1=O)NC1CCCC1	-12%
31	CC(=O)c1c(COC(=O)c2ccc(Cl)cc2)nc2ccccc2[n+]1[O-]	-1%
32	Cc1cc(C)n2nc(SCC(=O)N3CCCC(C)C3)nc2n1 (stereo not drawn)	-1%
33	COc1cccc(-n2ccnc2SCC(=O)Nc2cccc(C)c2C)c1	3%
34	O=C(O)CCNc1cc2ccccc2cc1C(=O)O	1%
35	O=C(Nc1ccc(Cl)cc1)N1CCc2ccccc2C1	8%
36	COc1ccc(C(=O)Nc2nnc(C)s2)cc1	-6%
37	CCc1ccc2c(c1)NC(c1cccs1)=NC(c1ccc(F)cc1)=N2	5%
38	O=C(OCc1ccc(Cl)cc1)c1cccnc1Cl	-4%
39	Cc1ccc(S(=O)(=O)CCC(=O)Nc2ccc3c(c2)OCO3)cc1	-3%
40	CCCCC(=O)Nc1ccc(S(=O)(=O)N2CCCCC2c2cccnc2)cc1 (stereo not drawn)	-13%
41	CC(C)N(Cc1ccccc1)C(=O)CC(=O)N(Cc1ccccc1)C(C)C	-23%
42	CCc1ccc(CNC(=O)CCS(=O)(=O)Cc2ccc(C)cc2)cc1	10%
43	Cc1c(/C(O)=C2/C(=O)C(=O)N(Cc3cccnc3)C2c2cccs2)cnn1-c1ccccc1 (stereo not drawn)	-5%
44	Cc1onc(-c2ccccc2Cl)c1C(=O)Oc1cccc2cccnc12	-18%
45	O=C(CN(C(=O)CNC(=O)c1ccco1)c1ccc(F)c(Cl)c1)NC1CCCCC1	-4%
46	O=C(Nc1cc(C(F)(F)F)ccc1N1CCOCC1)c1cncc(Br)c1	2%
47	Cc1ccc(C)c(N2CCN(C(=O)c3csc(C)c3C)CC2)c1	-15%
48	C=CS(=O)(=O)N(Cc1ccccc1Br)[C@H](CO)CC(C)C	-16%
49	O=C(CSc1n[nH]c(-c2ccc(F)cc2)n1)N1CCN(c2ccc(F)cc2)CC1	16%
50	COC(=O)c1ccccc1NC(=O)CSc1nnc(COc2cccc(OC)c2)n1C	-12%
51	CC(=O)c1ccc(NC(=O)Cn2cnc(S(=O)(=O)N3CCc4ccccc43)c2)cc1	8%
52	CCOc1ccc(CC(=O)Nc2nccs2)cc1OCC	-28%
53	CCOC(=O)Cn1c2ccccc2c2nc3ccccc3nc21	-10%
54	CCCCn1c(N)c(N(CCOC)C(=O)CN(C)S(=O)(=O)c2ccc(F)cc2)c(=O)[nH]c1=O	-13%
55	Cc1ccc(NS(=O)(=O)c2c(C)nc3sc(C)c(C)n3c2=O)cc1F	-8%
56	C/C=C/c1ccc(OCC(=O)Nc2cc(C(F)(F)F)ccc2N2CCOCC2)c(OC)c1	7%
57	CCCOc1ccc(Cl)cc1CNc1ccccc1	-10%
58	COc1ccc(C(CC(=O)O)N2C(=O)CCC2=O)cc1 (stereo not drawn)	-13%
59	Cc1ccc(-c2noc(CNC(=O)COc3cc(C)c(Br)c(C)c3)n2)cc1	14%
60	Cc1cccc2sc(NC(=O)C3CSC4(C)CCC(=O)N34)nc12 (stereo not drawn)	-9%

Continuation.
entry	canonical_smiles	VDR inh
61	CCc1ccc(C2CC(=O)c3c([nH]c(C(=O)OCC4CCCCC4)c3C)C2)cc1 (stereo not drawn)	-4%
62	O=C(NNc1nc(N2CCOCC2)nc(N2CCOCC2)n1)c1ccccc1	-13%
63	COc1cc2ccccc2c2c1CCCC2=O	-10%
64	COc1cc(C(=O)N/N=C/c2ccsc2C)cc(OC)c1OC	22%
65	Cc1cc(C)c(S(=O)(=O)N2CCN(C(=O)C(C)Cn3cncn3)CC2)c(C)c1 (stereo not drawn)	-15%
66	CC(O)CO (stereo not drawn)	-5%&14%
67	COc1cccc(CNc2ncc(-c3ccccc3)n2C)c1	-12%
68	CC(C)(C)S(=O)(=O)N1Cc2cc(=O)n(Cc3ccccc3)c(CCO)c2[C@@H]1CCO	7%
69	NC(=S)NN=C(c1ccc(F)cc1)C1CC1	-8%
70	Nc1nc(Nc2ccccc2)nc(NCc2ccco2)c1[N+](=O)[O-]	-4%
71	CCCCNC(=O)Cn1cnc2c(cnn2-c2ccc(C)c(C)c2)c1=O	4%
72	CCc1cc2c(=O)[nH]c(N3CCCC3)nc2s1	3%
73	O=C(NN1CCCCC1)c1cccc(COc2ccc(Cl)cc2)c1	-10%
74	CC(C)N(C1=N/C(=C\c2ccco2)C(=O)N1c1ccccc1)C(C)C	-10%
75	Cc1ccc(NC(=O)C2CCN(S(=O)(=O)c3c(C)n[nH]c3C)CC2)c(C)c1	6%
76	O=C(c1cc2ccccc2o1)N1CCN(S(=O)(=O)/C=C/c2ccccc2)CC1	-18%
77	CCn1c(CNC(=O)c2ccco2)nnc1SCC(=O)Nc1ccc(Br)cc1F	9%
78	CCOC(=O)N1CCN(C(=O)c2ccc3c(=O)n(CC4CCCO4)c(=S)[nH]c3c2)CC1 (stereo not drawn)	-1%
79	Nc1nonc1C(=O)NCCNc1ncccc1[N+](=O)[O-]	-3%
80	O=[N+]([O-])c1ccc(S(=O)(=O)N/N=C/c2ccc3c(c2)OCO3)cc1	-19%
81	CCN1CCCC1CNC(=S)Nc1ccc(C(C)=O)cc1 (stereo not drawn)	-14%
82	Cc1cccn2c(=O)c3cc(C(=O)NCC4CCCO4)c(=N)n(CCN4CCOCC4)c3nc12 (stereo not drawn)	-8%
83	Cc1ccc(-c2noc(CCC(=O)NCc3ccc4c(c3)OCO4)n2)cc1	-1%
84	O=C(Cn1nc(Cc2cccnc2)c2ccccc2c1=O)N1CCN(c2ccc(F)cc2)CC1	-7%

A second format for three compounds above:
73	O=C(NN1CCCCC1)c1cccc(COc2ccc(Cl)cc2)c1
  VDR inh: -10%
75	Cc1ccc(NC(=O)C2CCN(S(=O)(=O)c3c(C)n[nH]c3C)CC2)c(C)c1
  VDR inh: 6%
80	O=[N+]([O-])c1ccc(S(=O)(=O)N/N=C/c2ccc3c(c2)OCO3)cc1
  VDR inh: -19%

Continued:
entry	canonical_smiles	VDR inh
85	COc1ccc(C2=NN(c3nc(-c4ccccc4)c(CC(=O)O)s3)C(c3ccco3)C2)cc1 (stereo not drawn)	-18%
86	COc1ccc(C(=O)c2ccc(CC#N)s2)cc1	2%
87	CC(C)=CCN1CCN(Cc2cc(F)ccc2-n2nc(C)cc2C)CC1CCO (stereo not drawn)	-4%
88	Cc1ccccc1N1C(=O)c2ccccc2NC1c1ccncc1 (stereo not drawn)	-2%
89	O=C(c1ccco1)N(Cc1cccc([N+](=O)[O-])c1)c1ccc(Br)cc1	-12%
90	O=C(Nc1ccc(S(=O)(=O)NCc2ccccc2)cc1)c1ccccc1[N+](=O)[O-]	-2%
91	COc1cc(CCC(=O)OCC(=O)NC(=O)c2ccc(Cl)cc2)cc(OC)c1OC	-8%
92	COC(=O)c1cccc(NC(=O)CSc2nc(C)cc(=O)[nH]2)c1	10%
93	CC(C)c1ccc2c(c1)[C@H]1OCC[C@H]1[C@@H](c1cccs1)N2	0%
94	CCCC1C(C#N)=C(N)Oc2cc(C)n(C)c(=O)c21 (stereo not drawn)	-9%
95	CN(C(=O)CCN1C(=O)C2C3C=CC(C3)C2C1=O)c1ccccc1 (stereo not drawn)	-13%
96	O=Nc1ccc(O)c2ncccc12	-13%&-6%
97	CCOC(=O)c1c(C)[nH]c(C)c1S(=O)(=O)N1CCC(C(=O)Nc2cc(C)ccn2)CC1	11%
98	COC(=O)C1=C(CCc2ccccc2)NC(=O)NC1c1ccc(Cl)cc1 (stereo not drawn)	-19%
99	Cc1ccc(S(=O)(=O)Nc2ccc(O)c(Sc3ncn[nH]3)c2)cc1	3%
100	Cc1ccc(NS(=O)(=O)c2cccs2)nc1	5%
101	CCOC(=O)c1ccc(Oc2nc(NC)nc(OC)n2)cc1	-10%
102	COCCn1c(-c2ccc(F)cc2)nc2oc3cc(OC)ccc3c(=O)c2c1=O	5%
103	Cc1cc(N2O[C@H]3C=C[C@@H]2C3)no1	0%
104	CC1CC(C)CN(C(=O)Nc2ccc(Br)cc2)C1 (stereo not drawn)	-12%
105	CC(=O)c1c(C(C)=O)c(C)n(NC(=O)c2ccccc2O)c1C	-19%
106	Cc1nc(Cc2nnc(SCc3nc(N)nc(Nc4ccccc4C)n3)o2)cs1	2%
107	CCN(CC)CCC(=O)NC(C)(C)Cc1ccc(O)cc1	3%
108	CCOC(=O)CN1CC23C=CC(O2)C(C(=O)NC2CCCCCC2)C3C1=O (stereo not drawn)	0%
109	O=C(NC(Cc1c[nH]c2ccccc12)C(=O)NCc1ccc(F)cc1)OCc1ccccc1 (stereo not drawn)	5%
110	COc1ccc(NC(=O)CN2CCN(c3ccc(F)cc3)CC2)cc1	-52%
111	CCCCC(CC)CNC(=O)C(Cc1ccccc1)NS(=O)(=O)c1ccc2c(c1)CCC(=O)N2 (stereo not drawn)	-10%
112	Cc1nnc2n(-c3ccccc3)c(=O)c3c4c(sc3n12)CC(C)CC4 (stereo not drawn)	10%
113	C=CCNc1nc(NC(C)(C)CO)nc(OCC)n1	3%
114	Cc1nc2c(C(=O)NCCC3=CCCCC3)c[nH]n2c(=O)c1Cl	-18%
115	CCOC(=O)c1cccc(NC(=O)c2ccc3c(Cl)c4c(nc3c2)CCC4)c1	-16%
116	CCc1ccc(CN2CCN(C(=O)c3ccco3)CC2)cc1	15%
117	COC(=O)c1c(C)oc2ccc(N(C(=O)c3ccncc3)S(=O)(=O)c3ccccc3)cc12	-21%
118	CCSc1nnc(-c2c[nH]c3ccccc23)o1	6%
119	CCOC(=O)c1c(C)oc2ncnc(Nc3ccc(F)cc3Cl)c12	13%
120	O=C(COC(=O)/C=C/c1cccc(F)c1)Nc1ccc2[nH]c(=O)[nH]c2c1	6%

Arranged by the number under VDR inh (rising): some entries from above
entry	canonical_smiles	VDR inh
117	COC(=O)c1c(C)oc2ccc(N(C(=O)c3ccncc3)S(=O)(=O)c3ccccc3)cc12	-21%
115	CCOC(=O)c1cccc(NC(=O)c2ccc3c(Cl)c4c(nc3c2)CCC4)c1	-16%
113	C=CCNc1nc(NC(C)(C)CO)nc(OCC)n1	3%
119	CCOC(=O)c1c(C)oc2ncnc(Nc3ccc(F)cc3Cl)c12	13%
116	CCc1ccc(CN2CCN(C(=O)c3ccco3)CC2)cc1	15%

Next results:
entry	canonical_smiles	VDR inh
121	CC(C)(c1cc(Br)c(O)c(Br)c1)c1cc(Br)c(O)c(Br)c1	-10%
122	COc1ccc(CNC(=O)COC(=O)C2=COCCO2)cc1	?
123	Cc1ccccc1-c1nc(CS(=O)CC(=O)N2CCN(c3cc(Cl)ccc3C)CC2)c(C)o1 (stereo not drawn)	2%
124	COc1ccc(NC(=O)CCc2c(C)nc3cc(-c4cccc(F)c4)nn3c2C)cc1Cl	-8%
125	CC(=O)c1cccc(-n2nnnc2SCC(=O)NNC(=O)C(C)C)c1	-1%
126	C=CCn1c(COc2ccc(CC)cc2)nnc1SCC(=O)NC1CCS(=O)(=O)C1 (stereo not drawn)	7%
